From PubChem
HSV augment = HSV replication enhancement | maximum fold increase | HSV replication augmentation in cells, fold increase | 220,000 tested, 0.005% active;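 active = peak rise of 1.5-fold or more in the series; inconclusive = self-fluorescent or not available for retest; tested in PC3 cells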;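 note: first round at 10 µM; read as green reporter fluorescence; hits show the peak of a series up to 25 µM; 1 = signal of infected wells without compound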
INS promoter inh = TRM-6 insulin promoter activity inhibition. TRM-6 cells (human fetal islet line), insulin promoter-eGFP reporter, imaging; reporter expression induced with tamoxifen. inhibition, % at 2 µM. 130,000 tested, 0.9% active;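 active = inhibition above the mean plus 3 SD, with well images judged a real hit on visual review, cut at about 60% in these data, passing the limit was not always enough; inconclusive = inhibition over the cutoff but images rejected on review; inactive = inhibition not above the cutoff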
PKD1 kinase inh = inhibitors of human PKD1 kinase; Q15139; PKD1 kinase fluorescence polarization assay; inhibition, %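 (about 10 µM by stock and volumes)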; 200,000 tested, 0.056% active;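 active = inhibition of 50% or more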;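 note: controls were vehicle for no effect and a reference inhibitor for full effect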
GALR2 ag = agonists of human galanin receptor 2 (GALR2); O43603; GALR2-expressing cells, agonist activation read-out; activation, %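 (tested at 5 µM)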; 140,000 tested, 0.48% active;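 active = above mean plus 3 SD of all compounds, about 5% in these data, not always enough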;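 note: 0% = vehicle buffer wells and 100% = reference agonist at full effect; tested in CHO reporter cells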
Target sequence (O43603 whole entry, looked up): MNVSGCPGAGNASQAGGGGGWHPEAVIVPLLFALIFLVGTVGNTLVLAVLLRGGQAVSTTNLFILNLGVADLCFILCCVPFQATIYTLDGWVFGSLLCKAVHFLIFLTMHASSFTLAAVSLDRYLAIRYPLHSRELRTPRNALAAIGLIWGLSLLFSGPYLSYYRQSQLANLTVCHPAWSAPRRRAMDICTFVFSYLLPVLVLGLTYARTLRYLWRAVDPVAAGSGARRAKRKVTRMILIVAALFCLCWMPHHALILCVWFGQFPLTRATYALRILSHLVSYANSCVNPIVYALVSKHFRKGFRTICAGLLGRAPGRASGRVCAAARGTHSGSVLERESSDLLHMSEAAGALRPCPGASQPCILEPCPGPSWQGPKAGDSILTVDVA
RGS16-Gao HTS = RGS16-Galphao interaction regulator (human) | O15492+P09471 | bead-based flow cytometry RGS16-Galphao binding, fluorescence; actives lie on both sides | binding response (% of control), % at 10 µM | 220,000 tested, 0.38% active;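 active = below 25% or above 175%, edge rows of some plates excepted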;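 note: Galphao activated by GDP with aluminum fluoride before binding; 100% = wells without compound and 0% = beads without RGS; some results beyond the cut were filed as inactive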
Target sequence (O15492 whole entry, looked up): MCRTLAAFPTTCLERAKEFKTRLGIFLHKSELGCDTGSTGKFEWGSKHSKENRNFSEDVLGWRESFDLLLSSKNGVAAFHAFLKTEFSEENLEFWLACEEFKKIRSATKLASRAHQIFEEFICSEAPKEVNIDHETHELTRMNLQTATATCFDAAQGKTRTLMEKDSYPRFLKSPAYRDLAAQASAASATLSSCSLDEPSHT
Target sequence (P09471 whole entry, looked up): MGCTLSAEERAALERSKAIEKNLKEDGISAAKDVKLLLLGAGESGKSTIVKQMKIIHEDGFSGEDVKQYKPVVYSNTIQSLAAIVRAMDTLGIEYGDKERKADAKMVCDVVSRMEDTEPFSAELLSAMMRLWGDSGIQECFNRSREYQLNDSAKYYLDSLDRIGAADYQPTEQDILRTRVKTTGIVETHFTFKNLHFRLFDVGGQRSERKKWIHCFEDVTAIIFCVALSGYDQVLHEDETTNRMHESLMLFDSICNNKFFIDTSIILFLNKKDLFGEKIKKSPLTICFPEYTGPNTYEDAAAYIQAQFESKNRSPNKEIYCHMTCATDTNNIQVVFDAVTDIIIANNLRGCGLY
INS promoter inh cell count = recorded beside INS promoter inh, whose call it bears; normalized cell count, %; measured here: cell count, toxicity; reference of the scale not given here;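 cells exposed to compound for 48 h; stained nuclei by imaging scaled within each plate; lower means fewer cells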
HSV augment primary fold = also measured in HSV augment; calls as there; fold increase; compound at 10 µM; measured here: primary screen fold increase 10 uM; tested in PC3 cells;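 GFP signal in the first replicate; 1 = infected wells without compound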
* hit, by the source's call; i = inactive; ? = inconclusive; nt = not tested or not shown.

compound	HSV augment	HSV augment primary fold	INS promoter inh	INS promoter inh cell count	PKD1 kinase inh	GALR2 ag	RGS16-Gao HTS
Cc1ccc(-c2nn(Cc3ccccc3)cc2C=O)cc1C	i	0.97	-4	111	-3	-0.1	107
Cn1c(C(=O)O)c(CC(=O)N2CCN(Cc3ccccc3)CC2)c2ccccc21	i	1	43	129	-13	-2.3	103
CCCSP1(=S)NCCCO1 (centres undefined)	i	1	nt	nt	0	-3.1	103
Cc1cc(C)nc(N2Cc3ccccc3C2=N)n1	i	0.89	nt	nt	-10	nt	88
Cc1cc(/C=C2\C(=O)NC(=O)N(c3cccc(Br)c3)C2=O)c(C)n1C	i	1	30	107	-2	-2.2	91
Cc1cccc2c1N(N=O)CCC2	i	1	0	153	-2	0.1	104
CCN(CC)CC(O)c1ccc(C2CCCC2)cc1 (centres undefined)	i	0.89	31	116	-7	-1.8	103
COc1ccc(CCNCc2ccc(SC)cc2)cc1	i	1.1	-9	127	0	-1.4	101

Molecules from the list above that contain nitrogen in an aromatic ring (4):
compound	HSV augment	HSV augment primary fold	INS promoter inh	INS promoter inh cell count	PKD1 kinase inh	GALR2 ag	RGS16-Gao HTS
Cc1ccc(-c2nn(Cc3ccccc3)cc2C=O)cc1C	i	0.97	-4	111	-3	-0.1	107
Cn1c(C(=O)O)c(CC(=O)N2CCN(Cc3ccccc3)CC2)c2ccccc21	i	1	43	129	-13	-2.3	103
Cc1cc(C)nc(N2Cc3ccccc3C2=N)n1	i	0.89	nt	nt	-10	nt	88
Cc1cc(/C=C2\C(=O)NC(=O)N(c3cccc(Br)c3)C2=O)c(C)n1C	i	1	30	107	-2	-2.2	91

Continued:
compound	HSV augment	HSV augment primary fold	INS promoter inh	INS promoter inh cell count	PKD1 kinase inh	GALR2 ag	RGS16-Gao HTS
CC(=O)C1C2c3ccccc3O[C@@]1(C)N=c1s/c(=C/c3ccoc3)c(=O)n12 (some centres undefined)	nt	nt	17	91	-5	1.1	112
O=C(O)CCn1cc(C=C2C(=O)NC(=S)NC2=O)c(-c2ccccc2)n1	i	0.99	nt	nt	-1	nt	87
CN1C(=O)C(=Cc2ccc(N3CCOCC3)o2)C(=O)N(C)C1=S	?	nt	-27	106	-8	nt	130
O=C(O)C(Cc1cnc[nH]1)NS(=O)(=O)c1ccc(Cl)cc1 (centres undefined)	i	1.1	44	154	-10	-1.6	97
COc1ccc(C2CC(c3c(O)n(CCc4ccccc4)c(=O)[nH]c3=O)=NN2)cc1OC (centres undefined)	i	0.97	nt	nt	nt	nt	90
O=c1c2ccccc2nc(-c2ccc([N+](=O)[O-])cc2)n1-c1ccccc1	i	1.2	-76	176	-3	0.2	94
COc1ccc2c(c1)c(C(=O)O)c(C)n2C(C)C	i	0.99	-26	123	-6	-1.1	106
CCOP(=O)(OCC)c1ccc(O)cc1	i	1	nt	nt	6	nt	99
O=C1NC(=O)C2(C(=O)N1)C(c1ccc(F)cc1)NC(=S)NC2c1ccc(F)cc1 (centres undefined)	i	0.88	9	108	-2	-1.4	107
CCN(c1ccc(C(O)(C(=O)OC)C(F)(F)F)cc1)S(=O)(=O)c1ccccc1 (centres undefined)	i	0.88	4	99	10	16*	98
C=CCn1c(O)c(C=Nc2c(C)n(C)n(-c3ccccc3)c2=O)c(=O)[nH]c1=O	i	1.1	nt	nt	nt	nt	99
OC1(c2ccccc2F)CC2CCC(C1)N2CCN1CCOCC1 (centres undefined)	i	1.2	nt	nt	-14	-2.4	245
CCOc1ccc(N=C2SCCCN2C)cc1	i	0.75	-6	142	-6	-1.5	118
COc1ccc(/C=N/N=C(/N)N[N+](=O)[O-])c(OC)c1	i	1	33	206	-9	0.9	102
COc1ccc(OC)c(CN2CCCC(C(=O)c3sccc3C)C2)c1 (centres undefined)	i	0.77	nt	nt	nt	nt	99
O=C(CN1CCN(Cc2ccc(Cl)cc2)C1=O)N1CCC2(CC1)OCCO2	i	0.69	46	77	7	-0.9	49
O=C(Cc1ccccc1)N1CCN(C2CCCC2)CC1	i	1	-46	168	-8	-3.8	126
CC(C)N1C(=O)CCC1C(=O)N1CCC2(CC1)OCCO2 (centres undefined)	i	1	-66	123	-2	-2.1	101
Cc1cccc(-n2c(O)c(C=NCCCN3CCOCC3)c(=O)[nH]c2=O)c1C	i	1.1	-3	118	-9	0.3	104
CCOC(=O)CNC(=O)CNC(=O)C(Cc1ccc(N(CCCl)CCCl)cc1)NC(C)=O (centres undefined)	i	1.1	nt	nt	-6	nt	101
CC(=O)c1ccc(OC(=O)N(C)c2ccccc2)cc1	i	0.86	nt	nt	4	nt	103
COc1ccc(C(CC(=O)N2CCC3(CC2)OCCO3)NS(=O)(=O)c2ccc(C)cc2)cc1 (centres undefined)	i	0.94	nt	nt	-15	-0.2	97
O=C1C2CCCN2C(c2cccs2)N1c1ccccn1 (centres undefined)	i	0.96	nt	nt	6	-1.1	108
C=CCNC(=O)c1c(N)n(Cc2ccco2)c2nc3ccccc3nc12	?	nt	-38	157	1	6.4*	100

In a second layout: entries from further up
smiles: CCOC(=O)CNC(=O)CNC(=O)C(Cc1ccc(N(CCCl)CCCl)cc1)NC(C)=O (centres undefined)
  HSV augment: i | HSV augment primary fold: 1.1 | INS promoter inh: nt | INS promoter inh cell count: nt | PKD1 kinase inh: -6 | GALR2 ag: nt | RGS16-Gao HTS: 101

smiles: CC(=O)c1ccc(OC(=O)N(C)c2ccccc2)cc1
  HSV augment: i | HSV augment primary fold: 0.86 | INS promoter inh: nt | INS promoter inh cell count: nt | PKD1 kinase inh: 4 | GALR2 ag: nt | RGS16-Gao HTS: 103

Additional entries
compound	HSV augment	HSV augment primary fold	INS promoter inh	INS promoter inh cell count	PKD1 kinase inh	GALR2 ag	RGS16-Gao HTS
Cc1ccc(/C=C2\C(=O)NC(=O)N(CCc3ccc(F)cc3)C2=O)s1	i	0.83	nt	nt	2	nt	102
C=CC1CN2CCC1CC2c1[nH]c2ccccc2c1CCO (centres undefined)	i	1	-38	112	-8	-1.3	108
O=C(CNC(=O)c1ccc(Cl)cc1)Nc1ccc(Br)cc1C(=O)c1ccccc1	i	0.97	-31	134	0	-2.5	108
Cc1c(C(=O)N2CCC3(CC2)OCCO3)oc2ccccc12	i	1.2	12	129	-1	-2.3	99
Cc1ccccc1-n1c(-c2ccco2)nc2ccccc2c1=O	i	0.8	nt	nt	-5	-1.7	117
COC(=O)c1ccc(CN2CCN(Cc3ccccc3)CC2)cc1	i	1.1	nt	nt	-1	-1.2	101
CC1(C)OC(c2ccccc2)=C/C(=C/C=C2C(=O)NC(=O)NC2=O)O1	?	nt	40	99	-2	nt	107
CN1C(=O)N(C)C(=O)C(CCc2ccncc2)(CCc2ccncc2)C1=O	i	1	nt	nt	-2	nt	106

Two compounds picked at random from the list so far, as already listed:
compound	HSV augment	HSV augment primary fold	INS promoter inh	INS promoter inh cell count	PKD1 kinase inh	GALR2 ag	RGS16-Gao HTS
CN1C(=O)N(C)C(=O)C(CCc2ccncc2)(CCc2ccncc2)C1=O	i	1	nt	nt	-2	nt	106
CC1(C)OC(c2ccccc2)=C/C(=C/C=C2C(=O)NC(=O)NC2=O)O1	?	nt	40	99	-2	nt	107

The list continues.
compound	HSV augment	HSV augment primary fold	INS promoter inh	INS promoter inh cell count	PKD1 kinase inh	GALR2 ag	RGS16-Gao HTS
C=CCn1c(O)c(C(C)=NCCC(c2ccccc2)c2ccccc2)c(=O)[nH]c1=O	i	1.1	nt	nt	-17	0.0	115
COc1ccc(C(c2c(O)c3ccccc3oc2=O)c2c(C)n(C)n(-c3ccccc3)c2=O)cc1 (centres undefined)	i	0.88	64*	75*	-7	-1.0	92
CNc1cc(Cl)c2nonc2c1[N+](=O)[O-]	i	0.62	nt	nt	-5	nt	86
Cc1csc(=N)n1Cc1ccccc1	i	0.93	nt	nt	-4	-0.5	56
NS(=O)(=O)c1cccc(N2CCNCC2)c1	i	1	nt	nt	-10	nt	134
CCOC(=O)C1=C(N)Oc2ccccc2C12C(=O)N(CC(=O)OC)C(CC(=O)OC)=C2C(=O)OC (centres undefined)	i	1.1	-31	80	-15	-1.3	102
Cc1cc(/C=C2\C(=O)NC(=O)N(Cc3ccco3)C2=O)c(C)n1-c1ccc(O)cc1	i	1.1	-106	113	3	nt	94
CCCC/C(=N\O)c1c[nH]c2ccccc12	i	0.96	18	89	6	-0.8	79
Cc1cccc(C2=NCC(=O)N(CC(=O)NCc3ccco3)c3sc4c(c32)CCCC4)c1	i	0.78	-24	116	-1	-0.8	96
CCOC(=O)c1c(C)n(COCCO)c2ccc(O)cc12	i	0.97	9	73	5	-1.9	80
Cn1c(O)c(C=Nc2ccccc2-c2ccccc2)c(=O)n(C)c1=O	i	0.93	nt	nt	nt	nt	100
Fc1ccc(CCNCc2ccccc2Cl)cc1	i	0.95	-43	140	-2	-2.6	98
Cc1ccc(CN2C(=O)CN=C(c3ccccc3)c3ccccc32)cc1	i	0.94	0	170	-7	0.3	103
CC(C)Oc1ccc(C2(C#N)CC[N+](C)(C)CC2)cc1	i	0.91	39	120	-5	-1.2	123
COc1cccc(NC(=O)N2CCC3(CC2)OCCO3)c1	i	0.92	nt	nt	3	-0.2	69
COc1ccc(CN2C(=O)NC(=O)/C(=C/c3ccc([N+](=O)[O-])s3)C2=O)cc1	i	1.2	nt	nt	nt	nt	87
O=C1NC(=O)N(C2CCCCC2)C(=O)C1C1c2ccccc2C(=O)N1Cc1ccccc1 (centres undefined)	i	1	nt	nt	18	-1.2	106
C=CCn1c(O)c(C(C)=NCc2cc(OC)cc(OC)c2)c(=O)[nH]c1=O	i	0.97	nt	nt	8	-1.1	104
CCn1c(O)c(C=NCCN2CCOCC2)c(=O)n(CC)c1=S	i	0.9	nt	nt	nt	nt	99
CC(=O)N1CCN(CC(=O)Nc2ccc(C#N)c(Cl)c2)CC1	i	0.97	nt	nt	2	nt	99
CC(C)n1nnnc1CN1CCN(C)CC1	i	0.88	nt	nt	-5	-1.7	101
O=C(Cc1ccccc1)N1CCN(Cc2c[nH]c3ccccc23)CC1	i	0.79	nt	nt	-4	-0.8	110
COc1ccc(CC2C(=O)N(c3ccccc3)C(=O)N(c3ccccc3)C2=O)c(OC)c1	i	0.94	28	95	0	0.2	101
O=C(c1cc2c(s1)CCCC2)N1CCC2(CC1)OCCO2	i	1.2	8	70	-3	0.3	102
C=CCn1c(O)c(C=NCCCn2ccnc2)c(=O)[nH]c1=O	i	0.98	nt	nt	nt	nt	107
Cc1cccc(-n2c(O)c(/C=N/N3CCOCC3)c(=O)[nH]c2=S)c1	i	1	nt	nt	-4	-1.6	58
CN(C)S(=O)(=O)c1cc(NC(=O)C[N+]23CCN(CC2)CC3)ccc1Cl	i	0.88	14	93	-5	-1.2	101
S=P(NC1CCCCC1)(N1CC1)N1CC1	i	1	nt	nt	nt	nt	98
CCOc1ccccc1N1C(=O)NC(=O)/C(=C/c2ccc3c4c(cccc24)CC3)C1=O	i	1.1	-21	64	8	-0.7	101
Cc1cccc(-n2c(C)nc3ccccc3c2=O)c1C	i	0.96	nt	nt	0	nt	102
CC(=O)c1cn(Cc2ccc(C#N)cc2)c2ccccc12	i	1.1	8	97	-7	nt	101
CCOC(=O)COc1ccc2c(c1)c(C(C)=O)c(C)n2Cc1ccccc1	i	0.93	13	79	-6	nt	109
Cc1cccc(-n2c(O)c(C=Nc3ccc(Br)cn3)c(=O)[nH]c2=O)c1	i	1.1	14	111	-3	nt	86
CN1CCN(C(=S)SCC(=O)Nc2ccc(Cl)cc2C(=O)c2ccccc2)CC1	i	0.82	-20	107	-3	-0.1	103
Cc1cc(C=C2C(=O)NC(=O)NC2=O)c(C)n1-c1cccnc1	i	1.1	nt	nt	nt	nt	108
COc1ccn(C)c(=O)c1C#N	i	1.1	nt	nt	2	nt	95
CC(C)CC(NC(=O)C1CCCCC1)C(=O)N1CCC2(CC1)OCCO2 (centres undefined)	i	0.81	0	126	-2	-1.0	97
O=C(CCS(=O)(=O)c1ccc(Br)cc1)N1CCC2(CC1)OCCO2	i	0.87	nt	nt	-18	-0.8	101
CN(C)C(=Nc1ccccc1)P(=S)(N(C)C)N(C)C	i	1	nt	nt	3	nt	109
CN1C(=O)C(=Cc2ccccc2Oc2ccc(Cl)c(F)c2)C(=O)N(C)C1=O	i	0.97	-54	141	2	-1.4	95
CC(=O)OC1N=C(c2ccccc2Cl)c2cc(Br)ccc2N(C)C1=O (centres undefined)	i	0.98	nt	nt	nt	nt	100
O=C(N/N=C\C1C(=O)NC(=S)N(c2ccccc2)C1=O)c1ccc(O)cc1 (centres undefined)	i	0.91	0	85	-1	nt	105
C#C[C@]1(O)CC[C@H]2[C@@H]3CCC4=CC(=O)CC[C@]4(C)[C@H]3CC[C@@]21C	i	1	-29	97	-10	1.1	102

Not all compounds are listed; count on the stated rates, not on these rows.
